Screens deposited in PubChem BioAssay by several laboratories.
Bead autofluor: counter-screen for toxin protease inhibitors: compound fluorescence. compound autofluorescence counterscreen, microsphere flow cytometry; hits give high values. fluorescence intensity (concentration not given with the values). hit rate 3.1% among 360,000. AID 624483;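 active = at least 3 SD above the mean of all compounds, about 16000 in these data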;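 also: 100 nL of 1 mM stock went into each well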
PrP UTR inh: inhibition of PrP 5' UTR reporter expression. hit rate 0.35% among 340,000. AID 488862, 2010. cell-based PrP 5' UTR mRNA reporter, plate reader. inhibition, % (test concentration not listed);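 active = every replicate at 50% or more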;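 also: 0 = median of the neutral control wells; tested in H4 reporter cells; numbers are from one replicate; inactives centre near -14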
BJeLR lethal: MLPCN primary cell-based screen for lethality selective to Ras in HRASV12 cells | BJeLR (HRASV12) viability, CellTiter-Glo ATP luminescence, 48 h; reference of the scale not given here | inhibition, % (no concentration beside the values) | hit rate 0.17% among 300,000 | AID 1554, 2009;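 active = replicate mean above 50%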;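 also: 50 nL library stock added to about 25 µL; numbers are from one replicate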
RN4220 kill: growth inhibition of S. aureus RN4220, primary screen, OD600 | 16 h | inhibition, % (test concentration not listed) | hit rate 0.33% among 330,000 | AID 1259311, 2017;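 active = z-score of -3 or lower and OD600 up to 0.18 on both plates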;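 also: plate controls were untreated cells for no effect and reference antibiotic for full effect; stock transfer was 100 nL into about 80 µL; one replicate is shown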
ugtP null kill: growth inhibition of ugtP-null S. aureus, primary screen, RN4220 ugtP deletion, OD600. 16 h; some inactives read as strong as hits. growth inhibition, % (test concentration not listed). hit rate 0.54% among 330,000. AID 1259309, 2017;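 active = z-score under -3 and OD600 up to 0.15 on both plates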;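 also: plate controls were untreated wells for no effect and antibiotic for full effect; wells of about 80 µL received 100 nL stock; the first replicate is given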
Mtb hypoxia inh: PubChem AID 1159583; M. tuberculosis hypoxia-regulated fluorescent reporter, fluorescence; fluorescence inhibition, % (test concentration not listed); hit rate 0.1% among 300,000;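 active = 35 to 45% if threefold the growth effect, above 45% if 1.5-fold the growth effect; inactive = the rest, general growth blockers included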;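 also: wells of about 50 µL received 100 nL stock; 0% = vehicle wells and 100% = reference inhibitor wells; whole bacteria with a GFP reporter of the hypoxia response; strong numbers were not always called active; many hits fall short of the cut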
Mtb hypoxia inh growth: recorded beside Mtb hypoxia inh, whose call it bears; growth inhibition, %; measured here: M. tuberculosis growth (absorbance);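 0% = vehicle and 100% = reference antibiotic; read after six days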
* marks the source's active call; other numbers are inactive results; · = no result given.

SMILES	Bead autofluor	PrP UTR inh	BJeLR lethal	RN4220 kill	ugtP null kill	Mtb hypoxia inh	Mtb hypoxia inh growth
O=C(COc1ccc(C=NNS(=O)(=O)c2ccccc2)cc1)N1CCOCC1	·	·	·	4.8	-6	2	8
CCC(=O)NC(=S)Nc1cc(C(=O)O)ccc1OC	4610	-14	2	2.4	-6	-1	6
CCC(C)NC(=O)CC1Oc2ccc(Cl)cc2NC1=O (stereo not drawn)	4751	-9	-7	2.4	-7	·	·
CC(C)(C)c1csc(N(CCC#N)CCC#N)n1	16153*	2	10	9.4	12	16	2
COc1ccc(-c2cc(C(F)(F)F)n3ncc(C(=O)N4CCc5ccccc5C4)c3n2)cc1	4227	-18	·	1.5	6	8	15
C/C(=C\c1ccccc1)C(=O)Nc1cc(C)on1	4232	-34	8	3.1	3	·	·
COc1ccc(/C(C)=N/NC(=O)CNC(=O)/C=C\c2ccco2)cc1	2374	-5	8	·	·	·	·
COc1ccc(OC)c(CCNC(=O)c2ccc3c(=O)[nH]c4c(C(=O)NC(C)C)sc(=S)n4c3c2)c1	5045	-22	-8	23	29	15	18
O=C(NCc1cccnc1)c1ccc(S(=O)(=O)N2CCOCC2)cc1	10290	-23	9	1.5	8	5	6
CCN1CCN(C(=O)N2CCOCC2)CC1	2003	5	-2	1.0	2	5	0
Cc1cccc(NC(=O)c2nc[nH]c2C(=O)NCCCCCCNC(=O)c2[nH]cnc2C(=O)Nc2cccc(C)c2)c1	3750	-25	·	3.7	-25	9	16
CC#CCN1c2ccccc2[C@]23CC(C(=O)OC)N(C(=O)c4ccco4)C2=NC(C(=O)OC)=C(C(=O)OC)C13 (stereo partly drawn)	·	·	·	6.6	1	16	13
Cc1ccc(S(=O)(=O)N(C)C)cc1[N+](=O)[O-]	4727	-12	3	3.0	5	13	5
COc1ccc(/C=C(\NC(=O)c2cccs2)C(=O)NC(C)(C)C)cc1OC	3668	-4	-2	3.1	-2	10	9
Cc1ccc(OCc2nnc(SCC(=O)N3CCc4ccccc43)n2C)cc1	2404	-26	-4	2.9	-1	·	·

Arranged by SMILES length (ascending): part of the list above.
SMILES	Bead autofluor	PrP UTR inh	BJeLR lethal	RN4220 kill	ugtP null kill	Mtb hypoxia inh	Mtb hypoxia inh growth
C/C(=C\c1ccccc1)C(=O)Nc1cc(C)on1	4232	-34	8	3.1	3	·	·
COc1ccc(/C=C(\NC(=O)c2cccs2)C(=O)NC(C)(C)C)cc1OC	3668	-4	-2	3.1	-2	10	9
COc1ccc(-c2cc(C(F)(F)F)n3ncc(C(=O)N4CCc5ccccc5C4)c3n2)cc1	4227	-18	·	1.5	6	8	15

Further entries follow.
SMILES	Bead autofluor	PrP UTR inh	BJeLR lethal	RN4220 kill	ugtP null kill	Mtb hypoxia inh	Mtb hypoxia inh growth
CC(CNC(=O)C(C)(C)C)NC(=O)C(C)(C)C (stereo not drawn)	2373	1	15	-3.9	-3	0	6
O=C(c1ccc(Cl)cc1)n1cnc2ccccc21	4269	3	-9	3.7	8	4	3
CC1CCCN(CCCNC(=O)CN2C(=O)COc3ccc(S(=O)(=O)N4CCOCC4)cc32)C1 (stereo not drawn)	4625	-35	0	4.1	11	5	1
COc1ccc2oc(=O)c(/C(C)=N/Nc3nc(-c4cc(C)ccc4C)cs3)cc2c1	2758	-7	0	·	·	·	·
O=C(NCCCN1CCCC1=O)[C@H](CSCc1ccccc1)N1Cc2ccccc2C1=O	4647	9	-9	-2.0	-13	-16	7
CS(=O)(=O)c1sc2nc(-c3cccs3)cc(-c3ccccc3)c2c1N	3452	2	-11	-14	-22	15	13
O=C(NCc1ccc(Cl)cc1)C1CCC(CNc2c(N3CCCC3)c(=O)c2=O)CC1 (stereo not drawn)	4154	-23	-5	1.6	11	-16	3
Nc1n[nH]c(C2CC2)c1N=Nc1ccc(Cl)c(Cl)c1	·	·	1	4.9	1	3	-1
COc1ccc(CCNC(=O)C2CCN(C(=O)c3cccc(Cl)c3)CC2)cc1OC	3683	-15	-15	6.3	7	20	2
COc1cc(N)c(Cl)cc1C(=O)OCC(=O)NCC1CCCO1 (stereo not drawn)	4584	-24	·	0.4	4	6	-1
Cc1ccc(OC(=O)c2oc3ccc(F)cc3c2C)c(C)c1	10453	-46	1	7.5	6	8	12
CCC1CCCCN1CC(=O)Nc1cc(C)nn1-c1nc(C)cc(C)n1 (stereo not drawn)	7047	-28	3	6.0	-11	-2	10
CC(=O)Nc1ccc(N2CCN(c3ccc(C(F)(F)F)cn3)CC2)nc1	4437	-40	-7	2.9	0	9	4
O=C(COC(=O)c1n[nH]c2ccccc12)Nc1ccccc1	3237	-46	1	0.5	0	11	7
CSCCC(NC(=O)COc1ccccc1)C(=O)Nc1ccc(C)cc1 (stereo not drawn)	2144	-20	-3	4.3	3	7	2
O=c1[nH]c(=O)n(-c2ccc(Cl)cc2)c(O)c1C=NCCN1CCCCC1	3523	-7	-4	6.1	-4	11	12
O=C(O)c1ccccc1CSc1nc2ccccc2s1	4184	-22	-4	6.2	-7	7	-5
CCc1ccc(N2CC(C(=O)Nc3ccc4c(c3)OCCO4)CC2=O)cc1 (stereo not drawn)	5171	-12	-8	-0.6	10	2	12
CCCSC(=S)NC1CCS(=O)(=O)C1 (stereo not drawn)	9554	-8	1	2.9	-6	9	22
COc1ccccc1C(=O)NC(CCSC)C(=O)NNC(=O)c1csc(N2CCOCC2)n1 (stereo not drawn)	5839	-14	-5	1.9	7	2	1
CC(C)(O)c1[nH]c2ccc(C(F)(F)F)cc2c1C(C)(C)O	2917	-20	-1	-1.9	-1	0	-3
Cc1ccc(S(=O)(=O)Cn2nnnc2C(C(C)C)N2CCSCC2)cc1 (stereo not drawn)	12768	0	7	7.3	-1	9	1
CCCN(CCC)CC(=O)NCC1(c2ccccc2)CCOCC1	2911	0	5	6.1	13	7	5
CC(Cc1ccccc1)N/C=C1\CC(=O)NC1=O (stereo not drawn)	2288	-10	0	1.0	-3	·	·
O=C1CCC(=O)N1OCCOc1ccc(Cl)c2ccccc12	4308	-10	5	6.4	6	13	2
Cc1ccc(C(=O)N/C(=C/c2ccco2)C(=O)N2CCOCC2)cc1	5275	-15	-15	1.2	14	-10	-5
Cc1cc(C)c(C)c(S(=O)(=O)N2CCCN(C)CC2)c1C	3048	-18	6	1.8	-2	8	-2
N#C/C(=C\c1cn(CCOc2ccccc2F)c2ccccc12)C(=O)NCc1cccs1	2181	-15	-3	-1.5	-1	3	-3
Cc1cc(Br)ccc1OCC(=O)N(Cc1nc(-c2ccccc2)no1)C(C)C	20443*	-32	-6	4.2	42	5	9
O=C(CN1CCCCC1)Nc1ccc(C(F)(F)F)cc1Cl	4668	-15	0	1.6	8	-6	3

A stretch taken from the entries so far, as a working copy:
SMILES	Bead autofluor	PrP UTR inh	BJeLR lethal	RN4220 kill	ugtP null kill	Mtb hypoxia inh	Mtb hypoxia inh growth
O=c1[nH]c(=O)n(-c2ccc(Cl)cc2)c(O)c1C=NCCN1CCCCC1	3523	-7	-4	6.1	-4	11	12
O=C(O)c1ccccc1CSc1nc2ccccc2s1	4184	-22	-4	6.2	-7	7	-5
CCc1ccc(N2CC(C(=O)Nc3ccc4c(c3)OCCO4)CC2=O)cc1 (stereo not drawn)	5171	-12	-8	-0.6	10	2	12
CCCSC(=S)NC1CCS(=O)(=O)C1 (stereo not drawn)	9554	-8	1	2.9	-6	9	22
COc1ccccc1C(=O)NC(CCSC)C(=O)NNC(=O)c1csc(N2CCOCC2)n1 (stereo not drawn)	5839	-14	-5	1.9	7	2	1

(further entries)
SMILES	Bead autofluor	PrP UTR inh	BJeLR lethal	RN4220 kill	ugtP null kill	Mtb hypoxia inh	Mtb hypoxia inh growth
CCN1C(=O)/C(=C\c2ccco2)C(C(=O)OC)=C1C	5622	-32	3	6.2	2	19	10
CCOC(=O)c1cc(-c2ccc(C=Nn3cnnc3)o2)ccc1Cl	·	·	·	4.1	-9	10	-4
Cc1cccc(-c2nc(CC(=O)Nc3cccc(S(=O)(=O)NC4=NCCC4)c3)cs2)c1	3051	-7	·	-1.6	0	-2	-7
NC(=O)C(c1ccc(Sc2ccccc2)nn1)c1ccc(Cl)cc1Cl (stereo not drawn)	3419	-24	-1	3.7	-13	7	10
COc1ccc(Cl)cc1NC(=O)c1cc(-c2ccccc2)on1	3995	-22	-1	4.8	4	6	-7
COc1ccc(S(=O)(=O)N(C)C[C@H]2Oc3ccc(NC(=O)CCC(F)(F)F)cc3C(=O)N([C@H](C)CO)C[C@@H]2C)cc1	3799	-23	·	2.1	-1	-1	4
CC(=O)c1cccc(NC(=O)CNC(=O)Cc2ccccc2)c1	3575	-15	-5	1.9	-3	-8	-1
COC(=O)c1cccc(NC(=O)C2COc3ccccc3O2)c1 (stereo not drawn)	4817	-37	0	0.1	-3	9	10
CC1CCCCC1Nc1ncnc2sccc12 (stereo not drawn)	4491	-6	-2	7.3	1	-3	-3
COc1ccc(-n2c(Cc3cccn3C)nnc2SCC(=O)Nc2cccc(NC(C)=O)c2)cc1	7890	·	3	2.0	2	0	-4
C#CCOCCOCCOCCNc1nc(N2CCOCC2)nc(N2CCN(C(=O)[C@H]([C@@H](C)CC)n3cc(CCCN=C(N)N)nn3)CC2)n1	4493	1	-4	·	·	·	·
CCCCCC(=O)NC(=S)Nc1ccc(Br)cc1C	3292	57*	6	-4.5	39	12	13
CCCOc1ccc(-c2nc(N3CCN(CC)CC3)c3ccccc3n2)cc1	3796	·	6	-13	-2	-6	9
COc1ccc2c(c1)CCCC21NC(=O)N(CC(=O)c2cc(F)ccc2F)C1=O (stereo not drawn)	3343	-21	·	7.6	3	16	33
COC(=O)c1ccc(C=NNC(=O)c2ccccc2Cl)cc1	·	·	·	7.9	2	14	15
COc1cc(/C=C/C(=O)OCC(=O)NC(=O)NC(C)(C)C)cc(OC)c1OC	4323	-25	-6	3.8	3	12	5
CC1Cc2ccccc2N1C(=O)CN(C)CC(=O)Nc1cccc(F)c1 (stereo not drawn)	6555	-6	·	3.0	5	4	1
Cc1cc(OCCCCOc2ccc(S(N)(=O)=O)c(C)c2)ccc1S(N)(=O)=O	3076	-11	2	-1.2	-7	-3	-10
N#C/C(=C\c1cccnc1)C(=O)Nc1ccc(Cl)cc1	5336	-10	-3	-0.4	-2	5	1
C=CCn1c(O)c(N=NC(=S)Nc2cccc(C)c2)c2ccccc21	2362	14	25	27	-12	11	1
Cc1nc(-c2nc(-c3c(C(=O)NNC(=O)Nc4cccc(Cl)c4)noc3C)cs2)cs1	4051	-10	-5	6.1	-5	-13	-5
Cc1csc(NC(=O)CSc2nnc(-c3ccoc3C)o2)n1	9206	-21	-15	3.3	-1	7	8
COc1ccccc1NS(=O)(=O)c1cccc(C(=O)NNC(=O)C(C)NC(=O)c2ccco2)c1 (stereo not drawn)	3671	-55	·	2.0	5	4	2

Fetched by structure from the entries so far (four):
SMILES	Bead autofluor	PrP UTR inh	BJeLR lethal	RN4220 kill	ugtP null kill	Mtb hypoxia inh	Mtb hypoxia inh growth
CCC(C)NC(=O)CC1Oc2ccc(Cl)cc2NC1=O (stereo not drawn)	4751	-9	-7	2.4	-7	·	·
O=C(COC(=O)c1n[nH]c2ccccc12)Nc1ccccc1	3237	-46	1	0.5	0	11	7
COc1ccc(CCNC(=O)C2CCN(C(=O)c3cccc(Cl)c3)CC2)cc1OC	3683	-15	-15	6.3	7	20	2
COc1ccccc1NS(=O)(=O)c1cccc(C(=O)NNC(=O)C(C)NC(=O)c2ccco2)c1 (stereo not drawn)	3671	-55	·	2.0	5	4	2
